High-throughput results (PubChem)
FGF22 binding = FGF22 (human) thermal shift binding; recombinant FGF22 thermal shift, SYPRO orange fluorescence; percent of sucrose octasulfate shift, DMSO zero; calls only at 9.99 µM; hit rate 1.5% among 340,000;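 active = melting point raised past a set limit in the mean and every replicate; three in four hits are not shown here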
Target sequence (Q9HCT0 whole entry, looked up): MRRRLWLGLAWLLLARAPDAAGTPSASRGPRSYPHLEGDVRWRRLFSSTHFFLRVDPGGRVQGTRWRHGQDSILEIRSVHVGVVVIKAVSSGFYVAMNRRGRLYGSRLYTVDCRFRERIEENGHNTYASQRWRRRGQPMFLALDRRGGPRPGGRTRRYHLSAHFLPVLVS
UCH37 DUB inh = inhibitors of human deubiquitinating enzyme UCH37; hit rate 0.33% among 330,000; AID 588478; purified proteasome/UCH37, Ub-AMC cleavage fluorescence; inhibition, % (test concentration not listed);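 active = mean of two replicates above 20%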;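 note: 0% = compound-free wells with enzyme and 100% = wells lacking proteasome; stock transfer was 100 nL into about 20 µL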
Target sequence (Q9Y5K5 whole entry, looked up): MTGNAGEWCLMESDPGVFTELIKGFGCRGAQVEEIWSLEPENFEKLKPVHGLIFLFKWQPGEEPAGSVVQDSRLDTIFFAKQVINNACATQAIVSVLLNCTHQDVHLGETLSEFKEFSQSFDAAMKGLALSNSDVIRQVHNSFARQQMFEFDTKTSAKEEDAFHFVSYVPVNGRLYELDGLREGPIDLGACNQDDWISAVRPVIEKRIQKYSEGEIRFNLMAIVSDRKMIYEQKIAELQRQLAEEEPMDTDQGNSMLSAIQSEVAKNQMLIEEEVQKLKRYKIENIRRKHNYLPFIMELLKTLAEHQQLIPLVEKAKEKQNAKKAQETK
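Signal – fluorescence, ex 355 nm, em 460 nm · System – Proteasome-bound UCH37 · Input – 0.15 nM proteasome as dispensed · Timing – 30 min preincubation with enzyme, 25 min cleavage at room temperature · Read-out basis – percent inhibition of cleavage signal versus uninhibited and no-proteasome wells · Medium – Tris-HCl pH 7.4 with ATP-MgCl2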
AF4-AF9 inh = inhibitors of human MLL-AF4/AF9 interaction. P42568. inhibition, % at 10 µM. hit rate 0.47% among 350,000. AID 651704. AlphaScreen, biotin-AF4 peptide binding to FLAG-AF9;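 active = every replicate reaching a set inhibition limit, whatever the replicate mean, cut at about 25% in these data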;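 note: 0% = plate neutral control median and 100% = total signal loss; the record names both 10 and 1 µM as test concentration; the first replicate is given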
Target sequence (P42568 whole entry, looked up): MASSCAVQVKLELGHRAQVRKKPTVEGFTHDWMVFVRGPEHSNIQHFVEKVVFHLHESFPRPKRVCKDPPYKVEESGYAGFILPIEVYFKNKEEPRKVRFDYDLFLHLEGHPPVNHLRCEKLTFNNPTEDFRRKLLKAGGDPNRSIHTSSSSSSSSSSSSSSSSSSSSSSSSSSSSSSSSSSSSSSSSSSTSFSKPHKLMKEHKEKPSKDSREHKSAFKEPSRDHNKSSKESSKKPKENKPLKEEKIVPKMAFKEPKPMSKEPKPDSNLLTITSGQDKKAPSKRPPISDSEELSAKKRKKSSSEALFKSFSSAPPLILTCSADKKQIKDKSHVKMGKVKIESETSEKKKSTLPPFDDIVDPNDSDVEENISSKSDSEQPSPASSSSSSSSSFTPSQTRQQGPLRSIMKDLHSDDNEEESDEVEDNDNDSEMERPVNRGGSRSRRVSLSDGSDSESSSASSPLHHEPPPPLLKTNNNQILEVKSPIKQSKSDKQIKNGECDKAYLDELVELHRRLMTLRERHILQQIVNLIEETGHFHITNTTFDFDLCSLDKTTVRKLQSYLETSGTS
RanGTP-Imp inh = inhibitors of RanGTP-importin-beta interaction, primary screen, biochemical, FRET, CFP-Ran, YFP-importin-beta, homogeneous. cell-free CFP-Ran/YFP-importin-beta FRET ratio. inhibition, % (concentration not given with the values). hit rate 1.1% among 300,000;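 active = most replicates above 15%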;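 note: 0% = DMSO wells and 100% = Ran loaded with GDP instead of GTP; wells of about 40 µL received 100 nL stock; the first replicate is given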
Ecoli growth = E. coli growth inhibition | OD600 absorbance (concentration not given with the values) | hit rate 0.21% among 330,000 | AID 1053175 | Escherichia coli growth, OD600, 23 h; hits give low values;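 active = OD600 absorbance below the run mean of sample wells minus 3.6 SD, in any replicate, cut at about 0.56 in these data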;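 note: stock transfer was 300 nL into about 60 µL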
An asterisk follows results filed as active; i = inactive; x = no result given; & = joins results of further samples.

Screens by letter: A = FGF22 binding; B = UCH37 DUB inh; C = AF4-AF9 inh; D = RanGTP-Imp inh; E = Ecoli growth
O=C(O)c1ccccc1NC(=O)C1C2CCC(O2)C1C(=O)O (centres undefined)
  A = x	B = x	C = x	D = 0.2	E = x
CN(C)[C@@H]1C(=O)C(C(N)=O)=C(O)[C@@]2(O)C(=O)C3=C(O)c4c(O)cccc4[C@@](C)(O)[C@H]3C[C@@H]12
  A = x	B = x	C = x	D = -0.5	E = x
C=C1[C@@H](C)[C@H]2[C@H](Cc3ccccc3)NC(=O)[C@]23OC(=O)C=C[C@H](O)CCC[C@@H](C)CC=C[C@H]3[C@@H]1O
  A = x	B = 1.0	C = x	D = x	E = x
C[C@@H]1CCC2[C@@H](C)C(=O)O[C@@H]3OC4(C)CCC1[C@@]23OO4 (some centres undefined)
  A = x	B = 1.6	C = x	D = x	E = x
O=C(Cc1ccccc1)N1C[C@H]2[C@@H](c3ccccc31)[C@@H](CO)N2Cc1ccccc1
  A = i	B = x	C = x	D = x	E = x
Cc1cc(N2CCNC[C@@H]2C)ccc1N1CCN[C@H](C)C1
  A = i	B = x	C = x	D = x	E = x
O=C(NCCN1CCC2(CC1)C(=O)NCN2c1ccccc1)c1ccccc1C(F)(F)F
  A = i	B = x	C = x	D = x	E = x
COC(=O)C1C(c2ccc(I)cc2)CC2CCC1N2C (centres undefined)
  A = i	B = x	C = x	D = x	E = x
C/C=C/c1ccc(C2[C@@H]3CN(S(C)(=O)=O)C[C@H]2N3)cc1 (some centres undefined)
  A = i	B = x	C = x	D = x	E = x
COc1ccc2c(c1)[C@@]13CCCCC1[C@@H](C2)NCC3 (some centres undefined)
  A = i	B = x	C = x	D = x	E = x

(cont.)
Screens by letter: A = FGF22 binding; B = UCH37 DUB inh; C = AF4-AF9 inh; D = RanGTP-Imp inh; E = Ecoli growth
CCOC(=O)C1=C(C(=O)OCC)C2(c3ccccc3)c3ccccc3C1(C)N2C (centres undefined)
  A = i	B = x	C = x	D = x	E = x
O=S(=O)(c1ccc2ccccc2c1)N1Cc2cc(Br)ccc2-n2nncc2C1
  A = i	B = x	C = x	D = x	E = x
O=C(NCCN1CCC2(CC1)C(=O)NCN2c1ccccc1)c1ccc(F)c(F)c1
  A = i	B = x	C = x	D = x	E = x
COC(=O)C[C@@H]1CC[C@@H]2NC[C@H](O)COC[C@H]2O1
  A = i	B = x	C = x	D = x	E = x
Brc1ccc2c(c1)CNCc1cnnn1-2
  A = i	B = x	C = x	D = x	E = x
C=CCN1C[C@H](C)N(C(c2ccc(C(=O)N(CC)CC)cc2)c2cccc(OC)c2)CC1C (some centres undefined)
  A = i	B = x	C = x	D = x	E = x
Cc1cc(N2CCNC[C@H]2C)ccc1N1CC[C@H](O)C1
  A = i	B = x	C = x	D = x	E = x
COC1CC=C2CCN3CCC4=C(CC(=O)OC4)C23C1 (centres undefined)
  A = i	B = x	C = x	D = x	E = x
CCc1cc(OC)c(CCN)cc1OC
  A = i	B = x	C = x	D = x	E = x
C/C=C/c1ccc(C2[C@@H]3CN(Cc4ccccn4)C[C@H]2N3)cc1 (some centres undefined)
  A = i	B = x	C = x	D = x	E = x

Next structures follow:
Screens by letter: A = FGF22 binding; B = UCH37 DUB inh; C = AF4-AF9 inh; D = RanGTP-Imp inh; E = Ecoli growth
N#Cc1ccc(NC(=S)N2Cc3cc(Br)ccc3-n3nncc3C2)cc1
  A = i	B = x	C = x	D = x	E = x
Cc1ccc2nc(-c3ccc(CN4CCC(n5c(=O)[nH]c6cc(Cl)ccc65)CC4)cc3)c(-c3ccccc3)nc2c1
  A = i	B = x	C = x	D = x	E = x
C/C=C/c1ccc(C2[C@@H]3CN(Cc4cncnc4)C[C@H]2N3)cc1 (some centres undefined)
  A = i	B = x	C = x	D = x	E = x
O=C(O)c1cc(S(=O)(=O)N2CC3CC(C2)c2cccc(=O)n2C3)ccc1F (centres undefined)
  A = i	B = x	C = x	D = x	E = x
CCCN1[C@@H]2c3ccc(-c4cccc(OC)c4)c(=O)n3C[C@H]1[C@H](CO)[C@H]2C(=O)OC
  A = x	B = x	C = -1.3	D = x	E = x
COC(=O)[C@@H]1[C@@H](CO)[C@@H]2Cn3c(ccc(C4=CCCCC4)c3=O)[C@H]1N2Cc1ccccc1OC
  A = x	B = x	C = 3.7	D = x	E = x
O=C(Cc1ccncc1)N1CCCCN2[C@@H](CO)[C@@H](c3ccc(C#Cc4ccccc4F)cc3)[C@@H]2C1
  A = x	B = x	C = 2.8	D = x	E = x
CCCNC(=O)[C@@H]1[C@@H](CO)[C@@H]2Cn3c(cccc3=O)[C@@H]2N1CC
  A = x	B = x	C = -0.8	D = x	E = x
C/C=C/c1ccc(C2[C@@H]3CN(C(=O)c4cnccn4)C[C@H]2N3)cc1 (some centres undefined)
  A = x	B = x	C = -4.8	D = x	E = x
O=C(NC[C@H]1CC[C@@H]2NC[C@@H]2O1)C1CCCC1
  A = x	B = x	C = -4.0	D = x	E = x

Going on with the list.
Screens by letter: A = FGF22 binding; B = UCH37 DUB inh; C = AF4-AF9 inh; D = RanGTP-Imp inh; E = Ecoli growth
O=C(NC[C@H]1CC[C@H]2[C@H](CN2Cc2cccnc2)O1)C1CC1
  A = x	B = x	C = 9.6	D = x	E = x
Cc1ccc(OC(=O)N(C)C[C@@H]2OCc3ccccc3-c3c(n(C)c4ccccc34)C(=O)N([C@@H](C)CO)C[C@H]2C)cc1
  A = x	B = x	C = 8.2	D = x	E = x
O=C1C=C2C=CC3C[C@]2(O1)C1CCCCN31 (some centres undefined)
  A = x	B = x	C = x	D = x	E = 0.68
COC(=O)C1=C(c2cc3ccccc3o2)CC2CCC1N2C(=O)NCc1cccc2ccccc12 (centres undefined)
  A = x	B = x	C = x	D = x	E = 0.71
COC(=O)C1=C(c2c(C)noc2C)CC2CCC1N2C(=O)N1CCOCC1 (centres undefined)
  A = x	B = x	C = x	D = x	E = 0.71
CCCN1CCCC2Cc3nc(N)ncc3CC21 (centres undefined)
  A = x	B = x	C = x	D = x	E = 0.67
COC(=O)C1=C(c2ccccc2OCc2ccccc2)CC2CCC1N2C(=O)NCCOc1ccccc1 (centres undefined)
  A = x	B = x	C = x	D = x	E = 0.66
COC(=O)C1=C(c2cccc(OC)c2OC)CC2CCC1N2C(=O)NCC1CC1 (centres undefined)
  A = x	B = x	C = x	D = x	E = 0.68
CCCN1CCOC2c3cc(O)ccc3OCC21 (centres undefined)
  A = x	B = x	C = x	D = x	E = 0.66
C[C@]12CCC(O)CC1CCC1C2CC[C@]2(C)C(O)CCC12 (some centres undefined)
  A = x	B = x	C = x	D = x	E = 0.68

Remaining list, next part
Screens by letter: A = FGF22 binding; B = UCH37 DUB inh; C = AF4-AF9 inh; D = RanGTP-Imp inh; E = Ecoli growth
COC(=O)C1=C(c2ccccc2OCc2ccccc2)CC2CCC1N2C(=O)NCCOc1ccc(OC)cc1 (centres undefined)
  A = x	B = x	C = x	D = x	E = 0.71
COC(=O)C1=C(c2ccc3ccccc3c2)CC2CCC1N2C(=O)NC(C)C (centres undefined)
  A = x	B = x	C = x	D = x	E = 0.69
COc1cc2c3cc1Oc1cc(ccc1O)CC1c4c(cc(OC)c(O)c4Oc4ccc(cc4)CC3N(C)CC2)CCN1C (centres undefined)
  A = x	B = x	C = x	D = x	E = 0.7
CC(=Cc1ccccc1)CC1=C(C)C2(CC2)[C@@](C)(O)C(O)C1=CCO (some centres undefined)
  A = x	B = x	C = x	D = x	E = 0.69
Cc1c(C(=O)c2cccc3ccccc23)c2cccc3c2n1C(CN1CCOCC1)CO3 (centres undefined)
  A = x	B = x	C = x	D = x	E = 0.72
C[C@]12CCC3c4ccc(O)c(O)c4CCC3C1CCC2O (some centres undefined)
  A = x	B = x	C = x	D = x	E = 0.67
COC(=O)C1=C(c2ccccc2OCc2ccccc2)CC2CCC1N2C(=O)NCc1ccc(C(C)(C)C)cc1 (centres undefined)
  A = x	B = x	C = x	D = x	E = 0.72
COC1C=C2CCN(C)C2C2c3cc4c(cc3C(=O)OC12)OCO4 (centres undefined)
  A = x	B = x	C = x	D = x	E = 0.7
CCOC(=O)C1C2COc3ccc(Br)cc3C2N2C(=O)N(c3cccc(C)c3)C(=O)[C@]12C (some centres undefined)
  A = x	B = x	C = x	D = x	E = 0.71&0.7
COC(=O)C1=C(c2ccc(F)cc2OCc2ccccc2)CC2CCC1N2C(=O)NCc1ccc(C)cc1 (centres undefined)
  A = x	B = x	C = x	D = x	E = 0.73

Next part
Screens by letter: A = FGF22 binding; B = UCH37 DUB inh; C = AF4-AF9 inh; D = RanGTP-Imp inh; E = Ecoli growth
COC(=O)C1=C(c2ccc(F)cc2OCc2ccccc2)CC2CCC1N2C(=O)NCc1ccc(Cl)cc1 (centres undefined)
  A = x	B = x	C = x	D = x	E = 0.67
O=C(O)C1CC1C(NP(=O)(c1ccccc1)c1ccccc1)c1ccccc1 (centres undefined)
  A = x	B = x	C = x	D = x	E = 0.69&0.7
CCCNC(=O)N1C2CCC1C(C(=O)OC)=C(c1ccc(S(C)(=O)=O)cc1)C2 (centres undefined)
  A = x	B = x	C = x	D = x	E = 0.69
COC(=O)C1=C(c2cccc(OC)c2OC)CC2CCC1N2C(=O)NCc1ccc(C(F)(F)F)cc1 (centres undefined)
  A = x	B = x	C = x	D = x	E = 0.66
C=C1C(C)C2C(Cc3ccccc3)NC(=O)[C@]23OC(=O)C=CC(O)CCCC(C)CC=CC3C1O (some centres undefined)
  A = x	B = x	C = x	D = x	E = 0.65
COC(=O)C1=C(c2ccc(-c3ccccc3)c(F)c2)CC2CCC1N2C(=O)N1CCc2cc(OC)c(OC)cc2C1 (centres undefined)
  A = x	B = x	C = x	D = x	E = 0.73
CC1NCCc2cc(O)c(O)cc21 (centres undefined)
  A = x	B = x	C = x	D = x	E = 0.68
CCCNC(=O)N1C2CCC1C(C(=O)OC)=C(c1ccc(C(C)=O)cc1)C2 (centres undefined)
  A = x	B = x	C = x	D = x	E = 0.71
COC(=O)C1=C(c2cccc(OC)c2OC)CC2CCC1N2C(=O)N1CCC(O)CC1 (centres undefined)
  A = x	B = x	C = x	D = x	E = 0.69
COC(=O)C1=C(c2cccc(OC)c2OC)CC2CCC1N2C(=O)NC1CC1 (centres undefined)
  A = x	B = x	C = x	D = x	E = 0.68

Additional compounds
Screens by letter: A = FGF22 binding; B = UCH37 DUB inh; C = AF4-AF9 inh; D = RanGTP-Imp inh; E = Ecoli growth
COC(=O)C1=C(c2cc3ccccc3o2)CC2CCC1N2C(=O)NCCO (centres undefined)
  A = x	B = x	C = x	D = x	E = 0.67
Cc1cccc(N2C(=O)C(=CN3CCN(C(=O)c4ccco4)CC3)C(=O)NC2=S)c1
  A = x	B = x	C = x	D = x	E = 0.68
COC(=O)C1=C(c2ccc(F)cc2OCc2ccccc2)CC2CCC1N2C(=O)NCc1ccc(C(F)(F)F)cc1 (centres undefined)
  A = x	B = x	C = x	D = x	E = 0.71
COC(=O)C1=C(c2cccc(OCc3ccccc3)c2)CC2CCC1N2C(=O)NCc1ccc(F)cc1 (centres undefined)
  A = x	B = x	C = x	D = x	E = 0.74
COC(=O)C1=C(c2cc3ccccc3o2)CC2CCC1N2C(=O)N1CCC(O)CC1 (centres undefined)
  A = x	B = x	C = x	D = x	E = 0.7
COc1ccc2c(c1O)-c1c(OC)c(OC)cc3c1C(C2)N(C)CC3 (centres undefined)
  A = x	B = x	C = x	D = x	E = 0.67
COC(=O)C1=C(c2ccc(Cl)c(C(F)(F)F)c2)CC2CCC1N2C(=O)N1CCC(O)(c2ccc(Cl)cc2)CC1 (centres undefined)
  A = x	B = x	C = x	D = x	E = 0.7
C=C[C@]12CN(C)C3C4COC(CC41)[C@]1(C(=O)Nc4ccccc41)C32 (some centres undefined)
  A = x	B = x	C = x	D = x	E = 0.71
CC1C(=O)OC2CCN3CC=C(COC(=O)[C@](C)(O)[C@]1(C)O)C23 (some centres undefined)
  A = x	B = x	C = x	D = x	E = 0.68
CCOC(=O)[C@]12Cc3cc(Cl)ccc3C1N(Cc1ccccc1)C(=O)c1ccccc12 (some centres undefined)
  A = x	B = x	C = x	D = x	E = 0.72
CNc1ccc2oc(CC3O[C@@]4(CCC3C)OC(C(C)C(=O)c3ccc[nH]3)C(C)CC4C)nc2c1C(=O)O (some centres undefined)
  A = x	B = x	C = x	D = x	E = 0.69

Only Ecoli growth, for some of the entries so far:
SMILES | Ecoli growth
C=C[C@]12CN(C)C3C4COC(CC41)[C@]1(C(=O)Nc4ccccc41)C32 (some centres undefined) | 0.71
CC1C(=O)OC2CCN3CC=C(COC(=O)[C@](C)(O)[C@]1(C)O)C23 (some centres undefined) | 0.68
CCOC(=O)[C@]12Cc3cc(Cl)ccc3C1N(Cc1ccccc1)C(=O)c1ccccc12 (some centres undefined) | 0.72

Only part of the results is shown (hit frequency here may not be typical).
